HPGD block = blocks human HPGD enzyme activity | P15428 | purified HPGD, NADH fluorescence kinetic, PGE2 substrate | Potency, µM, without a hit: at the top dose activity change, negative = inhibition, actives largely listed as inhibitors | 150,000 tested, 4.3% active; active = well fitted inhibition curve with a large enough effect (not every such curve was filed as active); inconclusive = small, poorly fitted or top-dose-only effect, or another doubt; inactive = no such curve, though single readings can be large or run the other way;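 also: top concentration of the series not given in the record; plate controls included wells without enzyme; inactives centre near -10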
Target sequence (P15428 whole entry, looked up): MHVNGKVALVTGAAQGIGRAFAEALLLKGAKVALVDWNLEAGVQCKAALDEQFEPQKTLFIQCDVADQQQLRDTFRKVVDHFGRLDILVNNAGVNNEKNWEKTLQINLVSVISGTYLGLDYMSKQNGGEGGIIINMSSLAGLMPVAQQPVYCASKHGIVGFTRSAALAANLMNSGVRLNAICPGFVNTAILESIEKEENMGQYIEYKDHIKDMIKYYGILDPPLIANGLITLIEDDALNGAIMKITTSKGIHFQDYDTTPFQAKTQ
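NADH formation kinetics: reaction with 30 uM PGE2 and 1 mM NAD+ (final), 20 nM enzyme, Tris-HCl pH 8 with Tween 20, after 15 min compound preincubation at room temperature. Fluorescence change, last versus first of five reads.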
* = called active by the depositor; u = inconclusive; & = joins results of further samples. % is scaled to controls: 0 for no effect and ±100 for the full control effect; potency is read from the fitted curve at half-maximal effect.

No. | smiles | HPGD block
1 | CC1=C(C(=O)Nc2ccccc2)C(c2coc3ccccc3c2=O)C2=C(CCCC2=O)N1 (stereo not drawn) | -16.5%
2 | CCc1ccc(/C=N\NC(=O)c2ccc(Br)o2)s1 | -23.7%
3 | COc1ccc(C(=O)Nc2cccnc2)cc1C(=O)Nc1cccnc1 | -10.2%
4 | CCOc1ccc(N(CC(=O)NCC(C)C)S(C)(=O)=O)cc1 | 1.1%
5 | Cc1cc(C)c(S(=O)(=O)Nc2ccc(O)cc2)c(C)c1 | -7.3%
6 | Cc1ccccc1C(=O)N1CCN(c2ccc([N+](=O)[O-])c(N3CCOCC3)c2)CC1 | -2.9%
7 | CN(c1cccc(NC(=O)COc2ccc(Cl)cc2Cl)c1)S(C)(=O)=O | -20.5%
8 | O=C(CN(Cc1ccc(F)cc1)C(=O)c1ccco1)NCc1ccc(F)cc1 | -1.8%
9 | CCOc1ccc2nc(N3CCC(C(=O)N4CCN(C5CCCCC5)CC4)CC3)sc2c1 | -4.4%
10 | Cc1nc(-c2cn[nH]c2-c2ccc(O)cc2O)cs1 | -5.7%
11 | Cc1csc(NC(=O)c2sc3nc(-c4cccs4)ccc3c2N)n1 | -29.6%
12 | CC(C)(C)c1cc(NC(=O)COc2ccc(Br)cc2)n(-c2ccccc2)n1 | -7.8%
13 | O=C(CCS(=O)(=O)c1cccc2nsnc12)NCc1ccccc1Cl | -19.6%
14 | COC(=O)c1nc2nc(C)cc(C(F)(F)F)n2n1 | -3.3%
15 | CCC1=C2CC[C@H]3C(=O)N(CC)C(=O)[C@H]3[C@H]2[C@@]2(Cc3ccccc3)C(=O)N(CC3CC3)C(=O)N2C1=O | -8.8%
16 | Clc1ccc(-c2cc(CSc3cccc(Cl)c3)on2)cc1 | -17.0%
17 | CN(C)CCNC(=O)/C=N/O | 5.4%
18 | NS(=O)(=O)c1ccc(N=Nc2nc3[nH]c(=O)[nH]c(=O)c3[nH]2)cc1 | u
19 | CCC(C)(C(=O)NC1CCCCC1)N(Cc1ccco1)C(=O)CNC(=O)c1ccccc1 (stereo not drawn) | -5.8%
20 | COc1ccccc1CN1C(=O)[C@@H]2C(CCC(N)=O)NC3(C(=O)Nc4c3ccc(Cl)c4C)[C@@H]2C1=O (stereo partly drawn) | -8.3%
21 | Cc1ccc(NC(=O)C(=S)NCc2ccco2)cc1 | -8.8%
22 | CCOc1ccc(/C=N/NC(N)=S)cc1 | -6.6%
23 | O=C(CSc1nnc(Cc2ccccc2)o1)Nc1ccc(Br)cn1 | -1.6%
24 | CC(C)C12CN3CC(C(C)C)(CN(C1)C31C(=O)Nc3ccccc31)C2=O (stereo not drawn) | -5.0%
25 | O=C(O)CCCCNCc1ccccc1 | -9.6%
26 | CCOC(=O)n1c(=O)n(Cc2ccc(Cl)c(Cl)c2)c2ccccc21 | -8.9%
27 | O=C(NCc1cccnc1)c1c(F)c(F)c(F)c(F)c1F | -6.4%
28 | O=C(O)c1ccccc1C(=O)Nc1n[nH]c(=S)s1 | 8.91µM*
29 | Cc1ccc(/C=N/Nc2nc3ccccc3s2)o1 | -13.5%
30 | Cc1cc(C)c(S(=O)(=O)N(C)Cc2cnn(C)c2)c(C)c1 | -1.0%
31 | C[C@H](N)c1nnc(SCc2ccc(Cl)cc2Cl)o1 | -7.3%
32 | COc1ccc(C2=NOC(C(=O)NCc3ccc(F)cc3)C2)cc1OC (stereo not drawn) | -7.7%
33 | Nc1nc(SCC(=O)Nc2ccc3c(c2)CCC3)n[nH]1 | -5.0%
34 | Clc1ccccc1-c1nnc2sc(-c3ccc4c(c3)OCO4)nn12 | u
35 | COc1ccc(OCCOc2ccccc2[N+](=O)[O-])cc1 | -16.2%
36 | CC(=O)OC(C)C[N+](C)(C)C (stereo not drawn) | -9.5%&-11.0%&-1.6%
37 | CN(CCNC(=O)CN1CCN(Cc2ccccc2Cl)C1=O)Cc1ccccc1 | -13.4%
38 | COc1ccccc1N1CCN(S(=O)(=O)c2ccccc2F)CC1 | -7.0%
39 | O=C(Cn1nnc(-c2ccc3c(c2)OCO3)n1)N1CCOCC1 | -1.5%
40 | O=P(c1ccccc1)(c1ccccc1)C(c1ccco1)N1CCOCC1 (stereo not drawn) | -7.8%
41 | CCOC(=O)Nc1cc2c(C)cc(=O)oc2cc1C | u
42 | Cc1cccc(-c2noc(CN(C(=O)C(c3ccccc3)c3ccccc3)C(C)C)n2)c1 | -18.3%
43 | Fc1cc(F)cc(-c2oncc2-c2nnnn2-c2ccccc2)c1 | -2.3%
44 | Cc1ccc([C@@H](O)c2cnc(C)n2Cc2ccccc2)cc1 | -6.5%
45 | CCOC(=O)C(C(C)=O)=C1SC2CS(=O)(=O)CC2S1 (stereo not drawn) | -10.9%
46 | CCc1c(C(C)S(=O)(=O)c2ccc(C)cc2)[nH]c(=O)n1-c1ccc(OC(F)(F)F)cc1 (stereo not drawn) | -4.3%
47 | Cc1ccc(-c2nnc(SCC(=O)Nc3ccc(S(=O)(=O)N4CCCCCC4)cc3)o2)cc1 | -16.5%
48 | CCCn1c(NC(=O)c2ccc(Cl)c(S(=O)(=O)N3CCCC3)c2)nc2ccccc21 | u
49 | CCOC(=O)C1=C(C)NC(C)=C(C(=O)OCC)C1C1=COCCO1 | -18.4%
50 | Cn1nc(C(=O)Nc2nc3ccc(S(C)(=O)=O)cc3s2)ccc1=O | -11.9%
51 | Cc1ccc(Cn2c(Sc3nnc(C)s3)nc3c2c(=O)[nH]c(=O)n3C)cc1 | -2.1%
52 | Cc1ccc(/C=N/NC(=O)CCSc2ccccc2)cc1 | -18.5%
53 | O=c1cc2n(c(=O)[nH]1)CCC1=C2CCCC1 | -4.9%
54 | CCOC(=O)C1=C(C)Nc2ccccc2N=C1NC(=O)CCCN1C(=O)c2ccccc2C1=O | -18.0%
55 | O=C(CN(c1cccc(C(F)(F)F)c1)S(=O)(=O)c1ccc(Cl)c([N+](=O)[O-])c1)NCc1ccccc1Cl | -16.7%
56 | O=C(CCc1ccccc1)Nc1ccc(F)cc1F | -8.7%
57 | Cc1noc(C)c1COC(=O)CCOc1ccccc1 | -20.4%
58 | Cc1ccc(-n2[nH]c(=O)c3cccnc32)cc1 | 15.8µM*
59 | COC(=O)c1cn(CC(=O)N2CCCCCC2)c2ccccc12 | 0.4%
60 | Cc1ccc(N2C(=O)c3ccccc3C2Nc2ccccc2F)nc1 (stereo not drawn) | -5.8%

Following part
No. | smiles | HPGD block
61 | O=S(=O)(Nc1cc(Sc2cccc3cccnc23)c(O)c2ccccc12)c1ccccc1 | 1.12µM*
62 | COc1ccc(-n2c(SCC(=O)Nc3sc4c(c3C#N)CCCC4)nnc2-c2ccc(O)cc2)cc1 | -15.9%
63 | Cc1nnc(SCC(=O)Nc2nc3c(s2)CC(C)CC3)s1 (stereo not drawn) | -7.7%
64 | O=c1c2ccccc2nc(COc2ccccc2)n1/N=C/c1cc([N+](=O)[O-])ccc1O | -27.0%
65 | COc1cc2oc(-c3ccccc3)cc(=O)c2cc1O | -2.9%
66 | CC(C)(C)C(=O)Nc1nc(-c2ccc3c(c2)OCO3)cs1 | -10.8%
67 | N#Cc1c(N)n(CCOC(=O)c2ccc(Cl)cc2)c2nc3ccccc3nc12 | u
68 | CC1(C)Cc2c(sc3nnn(Cc4ccc(Cl)cc4)c(=O)c23)CO1 | -12.9%
69 | Cc1cc(NC(=O)/C=C/c2ccccc2)no1 | 0.5%
70 | O=C1C(O)CC2c3ccccc3CC3(CCCC3)N12 (stereo not drawn) | -5.5%
71 | COc1ccc(OC)c(NC(=O)c2ccc(-n3cccn3)nc2)c1 | u
72 | CCNC(=O)COc1ccc(CC)cc1 | -1.5%
73 | O=C(COC(=O)c1cnccn1)Nc1ccc(Cl)cc1 | -3.0%
74 | CC1(C)S[C@@H]2[C@H](NC(=O)Cc3ccccc3)C(=O)N2[C@@H]1C(=O)O | -1.1%
75 | Cc1ccc(C2C3=C(CC(C)(C)CC3=O)N(CCN3CCOCC3)C3=C2C(=O)CC(C)(C)C3)cc1 | u
76 | COc1ccc(N2C(=O)CC(SC(C)C)C2=O)cc1 (stereo not drawn) | -4.3%
77 | Cc1ccc(CSCC(Nc2ccc(C(=O)O)cc2[N+](=O)[O-])C(=O)O)cc1 (stereo not drawn) | -10.1%
78 | COCCNC(=O)COc1ncnc2ccc(Br)cc12 | -19.4%
79 | COc1cccc(OCCNC(=O)CSc2ccc(C(F)(F)F)cc2[N+](=O)[O-])c1 | -25.0%
80 | CCN(CC)S(=O)(=O)c1ccc(OC)c(NC(=O)C(Cc2ccccc2)N2C(=O)c3ccccc3C2=O)c1 (stereo not drawn) | -8.1%
81 | COc1cccc(C(=O)Nc2nnc(-c3cccs3)o2)c1 | -26.8%
82 | CC(C)(C)CNC(CO)C12CC3CC(CC(C3)C1)C2 (stereo not drawn) | -9.4%
83 | CC1CCN(CC(=O)NC(=O)NCc2ccccc2)CC1 | -4.4%
84 | CC1CCCCC1NC(=O)c1nn(C)c(=O)c2ccccc12 (stereo not drawn) | -14.3%
85 | N#Cc1c(-c2ccccc2)c(-c2ccccc2)nn(CC(=O)NNC(=O)Nc2ccccc2)c1=O | 0.1%
86 | NC1=NC(=O)/C(=C/c2ccccc2OS(=O)(=O)c2ccc3ccccc3c2)S1 | -18.6%
87 | N[C@H](C(=O)O)[C@@H]1[C@@H](C(=O)O)C1(F)F | -4.6%
88 | CN(C)CCCN(C(=O)c1ccc2c(c1)CCCC2)c1nc2c(F)cccc2s1 | u
89 | CCOC(=O)C1CCN(C(=O)c2cc3c(-c4ccc(OC)c(OC)c4)nn(C)c3s2)CC1 | u
90 | O=C1CCCC(=O)N1c1ccc(Oc2ccc(Cl)cc2)cc1 | -12.9%
91 | Cc1[nH]n2c(=O)cc(C(C)C)nc2c1-c1ccccc1 | u
92 | O=C(COc1ccc(Cl)cc1)N1CCCC1 | -9.9%
93 | O=S(=O)(Nc1nc2ccccc2nc1Nc1ccc(N2CCOCC2)cc1)c1cc(Cl)ccc1Cl | -10.0%
94 | CCC(=O)Nc1c2c(nn1-c1ccc(F)cc1)CS(=O)C2 (stereo not drawn) | -1.4%
95 | CC(=O)NC1(C(F)(F)F)C(=O)Nc2c1c(=O)n(C)c(=O)n2C (stereo not drawn) | -0.6%
96 | CCNC(=O)CSc1nc2ccccc2c(=O)n1OC | -15.6%
97 | Cc1ccccc1OCCCN1CCCC1 | 0.7%
98 | Cc1cc(=O)[nH]c2c(C)c(N)ccc12 | u
99 | COc1ccc(-c2nc(-c3ccc(Br)o3)no2)cc1OC | -13.6%
100 | CCOC(=O)N1CCN(C(=O)c2ccc3c(=O)n(Cc4ccccc4OC)c(=S)[nH]c3c2)CC1 | -6.4%
101 | CCOC(=O)c1cccc(NC(=O)CN(c2ccc(OC)cc2)S(=O)(=O)c2c(C)noc2C)c1 | -16.5%
102 | CC(C)CNC(=O)COC(=O)CCC(=O)c1cccs1 | -7.9%
103 | CCn1nnc(NC(=O)CSc2ccc(Cl)cc2)n1 | -6.4%
104 | COc1ccccc1NS(=O)(=O)c1cc(NC(=O)CNC(=O)c2cc(C)cc(C)c2)ccc1C | -4.4%
105 | O=C(CCS(=O)(=O)Cc1ccccc1)Nc1nc2c(s1)CCCC2 | 1.8%

3 compounds out of the list, ordered by molecular weight, rising:
No. | smiles | HPGD block
5 | Cc1cc(C)c(S(=O)(=O)Nc2ccc(O)cc2)c(C)c1 | -7.3%
95 | CC(=O)NC1(C(F)(F)F)C(=O)Nc2c1c(=O)n(C)c(=O)n2C (stereo not drawn) | -0.6%
104 | COc1ccccc1NS(=O)(=O)c1cc(NC(=O)CNC(=O)c2cc(C)cc(C)c2)ccc1C | -4.4%

Next results.
No. | smiles | HPGD block
106 | N[C@@H](CCC(=O)N[C@H](CSN=O)C(=O)NCC(=O)O)C(=O)O | -4.8%
107 | CCCCCCCCC(=O)N/N=C(\C)c1cccnc1 | -3.0%
108 | Cn1c2c(c(=O)n(C)c1=O)C(c1ccc(Cl)cc1)C(C#N)=C(N)O2 (stereo not drawn) | -26.7%
109 | COc1ccc(OCc2nnc(SCC(=O)N3CCCc4ccccc43)n2-c2ccc(C)cc2)cc1 | -6.5%
110 | Cc1cc(C)nc(SCC(=O)Nc2ccc(S(=O)(=O)NCCO)cc2)n1 | -8.8%
111 | OC(CCCN1CCCCC1)(c1ccccc1)c1ccccc1 | -8.2%&-3.3%
112 | O=C(c1ccc(Br)o1)N1CCN(c2ncccn2)CC1 | -3.3%
113 | CC1CCc2cc(F)ccc2N1C(=O)c1cc2nc(-c3ccco3)cc(C(F)(F)F)n2n1 (stereo not drawn) | u
114 | CCOc1ccc(N2CC(C(=O)NC(C)C)CC2=O)cc1 (stereo not drawn) | -10.0%
115 | N[C@H](Cc1cc(I)c(Oc2ccc(O)c(I)c2)c(I)c1)C(=O)O | -3.0%
116 | COc1cccc(S(=O)(=O)NCC(=O)Nc2ccc(C(C)(C)C)cc2)c1 | -11.5%
117 | CC1=C(C(=O)Nc2cc(-c3cccc(F)c3)[nH]n2)C2(CCCCC2)OC1=O | -4.3%
118 | COc1ccc(N(C(=O)COc2ccccc2OC)S(=O)(=O)c2ccc(C)cc2)cc1 | -5.0%
119 | COc1cccc(N2C(N)=NC(N)=NC2(C)C)c1 | -6.7%
120 | COC(=O)C1=C(C)NC(=O)C1(NC(=O)CN1CCCC1=O)C(F)(F)F (stereo not drawn) | -1.6%
121 | O=C(Cn1c(NCCCO)nc2ccccc21)c1ccco1 | 1.8%
122 | CCCCN1CNC(=S)N(c2ccccc2OCC)C1 | -2.7%
123 | O=c1[nH]c2ccc(NC(=S)Nc3ccc(Cl)cc3)cc2[nH]1 | -5.8%
124 | O=C(/C=C/c1ccc(F)cc1)NC(=S)Nc1ccccc1C(=O)NC1CCCCC1 | -17.6%
125 | CCC(CC)C(=O)Nc1ccc(C)c(O)c1 | -11.5%
126 | FC(F)(F)c1ccccc1C1C2=C(Nc3ncnn31)c1ccccc1CCC2 (stereo not drawn) | -7.1%
127 | CN(C)c1oc(/C=C/c2ccccc2)nc1C#N | u
128 | O=C(NCc1ccco1)c1nn2c(C(F)(F)F)cc(-c3cccs3)nc2c1Cl | -9.5%
129 | CCCNC(=O)N(C)c1nncnc1C(=O)NC | -16.4%

Screening results: PubChem, National Center for Advancing Translational Sciences (NCATS)

An excerpt; the hit share may differ from the screen's.
